Screening results from PubChem.
Lassa entry inh = inhibitors of Lassa virus binding or cell entry | Lassa virus pseudotype entry inhibition, cell reporter; control for the full effect not named in the record | Potency, µM (titrated, usually from 37.9 µM), inactives show at the highest dose activity change, negative = inhibition, hits mostly inhibitors | actives 1.2% (n = 300,000); active means well fitted inhibition curve with a large enough effect; inconclusive means small, poorly fitted or top-dose-only effect, or effect the other way; inactive means flat fitted curve, though single readings scatter; tested in HEK293 cells; note: % is set by controls: 0 for no effect and ±100 for the full control effect; nearly all actives have a fitted effect of over 50% in size; luciferase read-out
MARV entry inh = Marburg virus entry inhibition. Marburg virus pseudotyped entry inhibition, cell reporter; control for the full effect not named in the record; about a third of the inactives were read at about 46 µM. actives 1.8% (n = 300,000). Potency, µM (titrated, usually from 37.8 µM), for inactives: at the top dose activity change, negative = inhibition, actives largely listed as inhibitors; active = well fitted inhibition curve with a large enough effect; inconclusive = small, poorly fitted or top-dose-only effect, or effect the other way; inactive = flat fitted curve, though single readings scatter; tested in HEK293 cells; about a fifth of its hits are not listed in these tables; note: % is set by controls: 0 for no effect and ±100 for the full control effect; luciferase read-out
Cruzain Triton = blocks cruzain activity in presence of Triton detergent; Potency, µM, without a hit: max response, negative = inhibition, usual class: inhibitors; actives 0.43% (n = 200,000); purified cruzain, Z-FR-AMC fluorescence, 0.01% Triton; P25779;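 note: plate controls were neutral wells for no effect and buffer without enzyme for full effect; nearly all actives have a fitted effect of over 40% in size; top concentration of the series not given in the record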
Target sequence (P25779 123-467 limits assumed): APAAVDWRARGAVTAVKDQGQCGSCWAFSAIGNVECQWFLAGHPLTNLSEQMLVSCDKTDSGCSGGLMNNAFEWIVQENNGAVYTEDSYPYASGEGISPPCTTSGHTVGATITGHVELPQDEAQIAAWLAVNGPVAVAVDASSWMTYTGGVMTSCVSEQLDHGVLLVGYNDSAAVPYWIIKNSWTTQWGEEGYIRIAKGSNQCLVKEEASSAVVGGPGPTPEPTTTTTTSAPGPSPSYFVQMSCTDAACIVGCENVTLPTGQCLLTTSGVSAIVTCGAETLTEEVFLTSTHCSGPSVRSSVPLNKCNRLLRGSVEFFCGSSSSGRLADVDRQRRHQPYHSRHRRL
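Detergent-containing arm of a paired screen for aggregation-based inhibition: 0.01% Triton X-100 present. Cruzain at 1.5 nM cleaved 2 uM Z-FR-AMC at pH 5.5 with 5 mM DTT; AMC fluorescence gain over 60 s measured activity.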
RE007 growth inh = less growth of the S. pombe RE007 Vpr strain; S. pombe RE007 Vpr strain, BacTiter-Glo ATP luminescence, 24 h; control for the full effect not named in the record; Potency, µM (highest dose often 92.2 µM), for inactives: at the top dose activity change, negative = less growth; actives 0.21% (n = 360,000); active = well fitted falling curve with a large enough effect; inconclusive = small, poorly fitted or top-dose-only effect; inactive = no such curve, though single readings can be large or run the other way;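 note: % is set by controls: 0 for no effect and ±100 for the full control effect; nearly all actives have a fitted effect of over 50% in size; the assay follows cell death caused by Vpr and the record does not say whether a fall means rescue or toxicity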
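Fission yeast strain RE007, carrying one chromosomally integrated HIV-1 vpr copy, was seeded at OD 0.01 in PMG+AL medium with 23 nL pinned compound. After 24 h at 30 °C and 99% humidity, viability was read by BacTiter-Glo luminescence.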
SARS PLpro yeast = inhibitors of SARS-CoV papain-like protease in yeast; S. cerevisiae expressing SARS-CoV PLpro, growth rescue; control for the full effect not named in the record; Potency, µM (series often up to 32.9 µM), without a hit: top-dose activity, positive = growth rescue; actives 0.19% (n = 330,000); active means well fitted rising curve with a large enough effect; inconclusive means small, poorly fitted or top-dose-only effect; inactive means no such curve, though single readings can be large or run the other way; note: 0% is about no effect; nearly all actives have a fitted effect of over 55% in size; growth read by luminescence after 48 h
Cruzain inh noDet = inhibitors of Trypanosoma cruzi cruzain without detergent; P25779; purified cruzain, Z-FR-AMC fluorescence, no detergent; Potency, µM, without a hit: max response, negative = inhibition, usual class: inhibitors; actives 2.3% (n = 200,000);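 note: plate controls were enzyme without inhibitor for no effect and buffer without enzyme for full effect; nearly all actives have a fitted effect of over 40% in size; top concentration of the series not given in the record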
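Purified cruzain at 1.5 nM, pre-incubated 15 min with compound at room temperature in 100 mM sodium acetate pH 5.5, 5 mM DTT, 0.00005% Triton X-100. Reaction started with 2 uM Z-FR-AMC; AMC fluorescence increase over 60 s gives rate.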
2A StopGo = lowers the luciferase signal of an FMDV 2A StopGo reporter. Potency, µM (series often up to 57.9 µM), without a hit: top-dose signal change, negative = less light. human cells with a luciferase reporter of 2A StopGo recoding; control for the full effect not named in the record. actives 1.2% (n = 410,000); active = well fitted falling curve with a large enough effect; inconclusive = small, poorly fitted or top-dose-only effect; inactive = no such curve, though single readings can be large or run the other way; tested in HEK293T cells; note: % is set by controls: 0 for no effect and ±100 for the full control effect; nearly all actives have a fitted effect of over 45% in size; luciferase light after 4 h
NS1 inh = blocks influenza NS1 protein function. actives 0.4% (n = 270,000). Potency, µM (series often up to 46.1 µM), for the others: at the highest dose activity, positive = more growth. S. cerevisiae slowed by influenza A NS1, growth recovery by OD600. AID 2326; active means well fitted rising curve with a large enough effect; inconclusive means small, poorly fitted or top-dose-only effect; inactive means no such curve, though single readings can be large or run the other way; note: nearly all actives have a fitted effect of over 50% in size
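Compounds were scored for reversing the slow growth caused by influenza A NS1 in S. cerevisiae, measured by optical density at 600 nm. Assay medium contained 2% galactose at pH 6.0; NS1-free yeast of the same strain were the positive control.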
The depositor's hits bear a star; ? = inconclusive; · = not tested or not shown; & = joins results of further samples; [ ] = another dose, or the depositor's remark. Unless noted, calls come from the whole dose curve; as a rule, active = well fitted curve in the direction sought with a large enough effect; inconclusive = small, poorly fitted or top-dose-only effect, or another doubt; inactive = no such curve, though single readings can be large; an effect the other way counts as inactive or inconclusive. Potency is the fitted concentration of half-maximal effect. The order is random. About 4.5% of those tested had a hit in this group.

SMILES | Lassa entry inh | MARV entry inh | Cruzain Triton | RE007 growth inh | SARS PLpro yeast | Cruzain inh noDet | 2A StopGo | NS1 inh
Cn1c(=O)cc(SCC(=O)N2CCCC2)c2ccc(Cl)cc21 | 9% | -7% | -3.8% | -10% | ? | 1% | 4% | -9%
O=C(O)C1CCN(S(=O)(=O)N2CCOCC2)CC1 | 0% | 10% | 3.3% | -5% | -11% | 2% | 3% | -3%
CCOc1ccc(NC(=O)N2CC3CCCN3c3ccccc32)cc1 (stereo not drawn) | -29%[46.1 µM] | · | -13% | · | · | -17% | -29% | ·
O=C(NCCN1CCOCC1)C1CCN(c2nc3ccccc3o2)CC1 | ? | 5% | 1.3% | 5% | -9% | -3% | 10% | -20%
COCCOC(=O)C1=C(C)NC(=O)NC1c1ccc(Cl)cc1 (stereo not drawn) | -2% | 0% | -3.2% | -3% | 1% | -1% | · | -3%
CCCCCC(=O)OCCc1c(C)nc2nc[nH]n2c1=O | 14% | -15%[46.1 µM] | · | -9% | -5% | · | -2% | -2%
COc1ccc2c(c1OC)OCC2C (stereo not drawn) | ? | -28% | · | -11% | · | · | -15% | ·
C=CCn1c(O)c(C(C)=NCC2CCCO2)c(=O)[nH]c1=O (stereo not drawn) | -23% | 5%[46.1 µM] | · | -6% | 0% | · | -2% | 5%
O=C(/C(=C(\O)c1ccccc1)c1ncc[nH]1)c1ccccc1 | -20%[46.1 µM] | -3%[46.1 µM] | · | -19% | 0% | · | 16% | ·
CC(C)CCNC(=O)C1CCC(=O)N1CCc1ccccc1 (stereo not drawn) | 4%[46.1 µM] | 1%[46.1 µM] | · | 8% | -1% | · | -11% | -2%
CCN1CCN(C(=S)NCCc2ccccc2)CC1 | ? | 25% | 0.6% | 3% | -17% | -7% | 18% | -10%
O=C(Oc1ccc(-c2csnn2)cc1)C1CC1 | 1%[46.1 µM] | -15%[46.1 µM] | · | -2% | -1% | · | -17% | -3%
CC(=O)c1cccc(NC2c3ccccc3C(=O)N2Cc2ccco2)c1 (stereo not drawn) | · | · | · | 3% | -1% | · | ? | 0%
CCOC(=O)c1c(-c2ccccc2)csc1NC(=O)CSc1nc(C)cc(C)n1 | ? | ? | -3.6% | 10% | -17% | 11% | ? | -25%
CSc1ccc(CCNC(=O)c2sc3ncccc3c2-n2cccc2)cc1 | -26%[46.1 µM] | · | -8.9% | · | · | 7% | ? | ·
COc1ccc(C(C(=O)NC2CCCCC2)N(C(=O)CCCC(=O)Nc2ccccn2)c2ccc3c(c2)OCCO3)cc1 (stereo not drawn) | ? | -9% | -5.6% | -8% | 1% | 23% | · | ?
Oc1ccc(Br)cc1-c1cc(-c2ccccc2Cl)[nH]n1 | · | · | · | -10% | 0% | · | 21% | -1%
C/C=C/C=C/C(=O)N1CC2(CC(c3cccc(NC(=O)CCCCC)c3)=NO2)C[C@H]1C(N)=O (stereo partly drawn) | · | · | · | 7% | -4% | · | -8% | 6%
Cc1ccc(CNC(=O)Cn2cccc2C(=O)c2ccccc2C)cc1 | ? | -4%&-4%[46.1 µM] | -0.9% | -3% | -2% | -28% | 39%&19%[activator] | ·
COc1ccc2c(Cl)c(C(=O)NC3CCS(=O)(=O)C3)sc2c1 (stereo not drawn) | 14% | 20% | 0.7% | 26% | ? | ? | 30% | -10%
O=S(=O)(Nc1nccs1)c1ccc(Cl)cc1 | 5% | 0% | 3.0% | -13% | 13% | 1% | 55%[activator] | -7%
Cc1ccc(S(=O)(=O)NCC(=O)OCC(=O)c2cc(C)n(-c3ccccc3)c2C)cc1 | 1% | -9% | -12% | -9% | -13% | -13% | 3% | -5%
COc1ccc(N2CCN(C(=O)COC(=O)/C=C/c3ccc(OC(F)F)cc3)CC2)cc1 | 1% | ? | · | 2% | -9% | · | -6% | ·
N/C(=N\N=C\c1cccc(O)c1)c1nonc1N | ? | ? | · | -11% | -1% | · | -78% | ·
Cc1ccc(O)c(NC(=O)c2ccc3c(c2)C(=O)N(CC(C)C)C3=O)c1 | 4%[46.1 µM] | 12%[46.1 µM] | · | 3% | -3% | · | 15% | 6%
COc1cccc(Nc2nc3ccccc3c3nncn23)c1 | 0%[46.1 µM] | 22%[46.1 µM] | -7.4% | · | · | ? | -23% | ·
COC(=O)c1ccc2[nH]c(C)cc(=O)c2c1 | 6% | -1% | 2.2% | 21% | -10% | 3% | 15% | -2%
CCOC(=O)N1CCN(C(=O)CN(c2ccccc2OC)S(=O)(=O)c2ccc(OC)cc2)CC1 | -8% | ? | · | -9% | 0% | · | 10% | -4%
CC1CCCC(C2(O)C(=O)Nc3ccccc32)C1=O (stereo not drawn) | ? | ? | -0.1% | 3% | -2% | -4% | -25% | 8%
Cc1cc(-c2nnc(CCC(=O)NCCc3ccccc3F)o2)no1 | 6% | 20% | · | 5% | 0% | · | 3% | -9%
COc1cc(CN2CCN(c3cccc(C)c3C)CC2)cc([N+](=O)[O-])c1O | -2% | -18%[46.1 µM] | · | 12% | 1% | · | -20% | ·
CC(=O)NCCc1nc2ccccc2n1Cc1ccc(C)cc1 | · | · | 1.2% | 14% | 0% | -1% | 4% | 1%
O=C1CC(N2CCN(Cc3ccc4c(c3)OCO4)CC2)C(=O)N1c1cccc2ccccc12 (stereo not drawn) | -11%[46.1 µM] | ? | · | -7% | -3% | · | -21% | 1%
O=C(O)CC1S/C(=N/N=C/C=C/c2ccccc2)NC1=O (stereo not drawn) | -2%&0% | ? | -17%&-18% | 23%&1% | 2%&-17% | -3%&-9% | -13%&-8% | 0%&3%
CCOc1ccc(N(CC(=O)N2CCCCC2)S(=O)(=O)c2ccc(Cl)cc2)cc1 | ? | ? | · | 3% | -22% | · | 9% | -63%
O=C(C1CCC(CNc2c(N3CCCCC3)c(=O)c2=O)CC1)N1CCN(c2ccccn2)CC1 (stereo not drawn) | · | · | · | 2% | 7% | · | -18% | -18%
CCOc1ccc(/C(C)=N/NC(=O)C(OC)c2ccccc2)cc1 (stereo not drawn) | -15% | -4%[46.1 µM] | · | 2% | -1% | · | 3% | ·
COc1ccc(NC2CCCN(C(=O)c3ccccc3C(F)(F)F)C2)cc1 (stereo not drawn) | 3% | 15% | · | -8% | -2% | · | -1% | -7%
N#CCCc1cccc(CCC#N)c1 | · | · | · | 23% | 13% | · | 0% | 12%
COc1cc(OC)c(N2CC(C(=O)Nc3cc(Cl)ccc3N3CCOCC3)CC2=O)cc1Cl (stereo not drawn) | ? | -16% | · | 10% | -1% | · | 7% | ·
CC(C)Nc1cc(N2CCCC2)ccc1[N+](=O)[O-] | -24% | -19% | -8.4% | -4% | -3% | 4% | · | -18%
O=C1Nc2ccccc2S/C1=C/c1cccs1 | -4%[46.1 µM] | 9%[46.1 µM] | · | -10% | -1% | · | 0% | -19%
CC(C)c1ccc(NC(=O)C2CC2c2ccccc2)cc1 (stereo not drawn) | · | · | · | 9% | -4% | · | 11% | -30%
CCCOc1ccc(C(=O)NC(=S)Nc2nc(C)c(C(=O)N(C)C)s2)cc1 | 5% | 0% | -11% | -6% | -12% | ? | -10% | 3%
Cc1cnc(=O)[nH]c1SCc1ccc(C(F)(F)F)cc1 | · | · | · | 5% | -1% | · | 2% | 10%
CCOc1ccccc1N(CC(=O)OC)S(=O)(=O)c1ccccc1 | 7% | 9% | 9.9% | -1% | -9% | -7% | 11% | -9%
CC(=O)c1ccc(NC(=O)CSc2nc3[nH]c(=O)cc(O)c3s2)cc1 | -21% | -4%[46.1 µM] | · | 6% | · | · | 2% | ·
COc1ccccc1NC(=O)c1ccc(Cl)c(S(=O)(=O)N2CCOCC2)c1 | -13% | 0% | 1.5% | 2% | 3% | 1% | ? | 5%
COc1ccc(CNS(=O)(=O)c2ccc(-c3ccc(=O)[nH]n3)s2)cc1OC | 2%[46.1 µM] | 9%[46.1 µM] | · | 10% | 3% | · | -26% | -13%
O=C(NC1CCCCC1)c1cc2nc3c(c(C(F)(F)F)n2n1)CCCC3 | -14% | ? | 2.1% | -9% | -4% | 21% | 5% | -12%
Cc1cc(=O)n2nc(N(C)CC(=O)NCc3cccc(Br)c3)sc2n1 | -1%[46.1 µM] | 17%[46.1 µM] | -1.4% | · | · | 2% | -20% | ·
Cc1cccc(C)c1NC(=O)CS(=O)CC(=O)Nc1ccc(F)cc1F (stereo not drawn) | 7% | 9% | 2.8% | 0% | 6% | 2% | 2% | 2%
O=C(Cc1c[nH]c2ccccc12)NCc1ccncc1 | 15%[46.1 µM] | 4%[46.1 µM] | · | 0% | · | · | 6% | 2%
COc1ccc(OC)c(CCNC(=O)CC2Oc3ccc(C)cc3NC2=O)c1 (stereo not drawn) | · | · | 3.7% | 0% | -3% | -28% | -4% | 4%
COC(=O)c1ccc(-c2nc(CN3CCC(C(=O)N4CCOCC4)CC3)c(C)o2)cc1 | 3% | 15% | · | -5% | -1% | · | -6% | -2%
CC(=O)Nc1cc[n+](C(C)C(=O)c2ccc(Br)cc2)cc1 (stereo not drawn) | -12% | ? | · | -18% | -1% | · | -17% | -1%
COc1ccccc1CNC(=O)c1ccccc1N | 6% | 3% | 6.3% | -12% | 5% | -5% | 26% | 9%
CCOC(=O)C1(Cc2ccccc2)C(=O)N(CCCN(C)C)c2ccccc21 (stereo not drawn) | 16% | -20%[46.1 µM] | · | 6% | · | · | 5% | ·
Cc1cn(Cc2ccccc2Cn2cc(C)c(=O)[nH]c2=O)c(=O)[nH]c1=O | 20% | 4%[46.1 µM] | · | 16% | 0% | · | 6% | 6%
CCc1ccc(Cn2c(CNS(=O)(=O)c3ccc(Cl)s3)nc3cccnc32)cc1 | 10%[46.1 µM] | · | -3.1% | · | · | -2% | 72%[activator] | ·
Cc1ccc2c(c1)nnn2C1CCN(CC(=O)Nc2ccc(F)cc2)CC1 | 7% | -15%[46.1 µM] | · | 3% | -1% | · | -27% | -2%
COc1cc(NC(=O)CSc2nnc(NC(C)C)s2)cc(OC)c1OC | 0%[46.1 µM] | ? | · | 17% | 3% | · | -9% | -2%
